MbtI inh – blocks the Mycobacterium tuberculosis siderophore enzyme MbtI. inhibition, %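 (about 17 µg/mL by stock and volumes)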. AID 493033. purified MbtI enzyme, fluorescence intensity read-out. hit rate 0.89% among 100,000;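 active means above 50% in both replicates, above 80% if mildly self-fluorescent; inactive means the rest, strongly fluorescent compounds included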;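 further: 0% = mean of negative and 100% = mean of positive controls; one replicate is shown; some compounds called inactive have numbers as strong as hits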
Target sequence (P9WFX0 whole entry, looked up): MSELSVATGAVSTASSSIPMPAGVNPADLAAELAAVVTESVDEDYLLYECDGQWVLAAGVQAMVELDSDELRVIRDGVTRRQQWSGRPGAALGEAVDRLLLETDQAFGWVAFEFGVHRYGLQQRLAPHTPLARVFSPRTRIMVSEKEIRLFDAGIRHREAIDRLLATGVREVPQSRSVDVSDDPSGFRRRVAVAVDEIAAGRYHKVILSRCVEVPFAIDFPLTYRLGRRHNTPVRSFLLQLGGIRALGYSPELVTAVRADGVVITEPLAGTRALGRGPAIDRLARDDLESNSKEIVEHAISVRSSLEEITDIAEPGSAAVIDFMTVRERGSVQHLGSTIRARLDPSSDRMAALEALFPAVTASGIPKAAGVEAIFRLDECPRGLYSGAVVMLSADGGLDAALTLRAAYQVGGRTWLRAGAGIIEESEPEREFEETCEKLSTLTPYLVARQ
PV pol inh – inhibitors of poliovirus RNA polymerase binding and polymerization; hit rate 0.66% among 150,000; P03300; poliovirus polymerase elongation, fluorescence polarization; active compounds read low; % elongation, % (compound at 16.7 µg/mL); in the data active means % elongation below about 90%; further: some results filed as inactive read as strong as hits
Target sequence (P03300 1749-2209 limits assumed): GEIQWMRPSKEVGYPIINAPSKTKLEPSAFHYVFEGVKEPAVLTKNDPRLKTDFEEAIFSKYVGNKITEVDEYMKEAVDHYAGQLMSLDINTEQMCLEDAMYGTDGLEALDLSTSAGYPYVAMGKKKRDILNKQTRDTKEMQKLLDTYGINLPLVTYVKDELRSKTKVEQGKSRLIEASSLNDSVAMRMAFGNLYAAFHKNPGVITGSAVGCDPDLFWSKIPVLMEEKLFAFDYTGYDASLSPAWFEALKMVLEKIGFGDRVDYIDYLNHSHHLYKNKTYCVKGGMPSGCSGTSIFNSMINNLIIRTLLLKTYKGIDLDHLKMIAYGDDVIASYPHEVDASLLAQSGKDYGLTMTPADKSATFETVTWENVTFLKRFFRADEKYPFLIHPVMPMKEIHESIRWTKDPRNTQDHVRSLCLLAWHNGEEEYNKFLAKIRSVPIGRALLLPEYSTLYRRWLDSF
Mtb MenB inh – Mtb MenB enzyme inhibition; P9WNP5; inhibition, %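 (about 12 µg/mL by stock and volumes)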; MenB enzyme assay, absorbance read-out; some hits fall short of the stated cut; hit rate 0.43% among 100,000;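 active means mean of two replicates above 30%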;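 further: 0% = no compound and 100% = wells with inactive enzyme; the first replicate is given; strong numbers were not always called active; inactives centre near -10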
PV pol inh intensity – second read-out of PV pol inh, no call of its own (marks repeat the call); % elongation; measured here: total intensity read-out; formula for this scale not given here;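 total fluorescence in place of polarization; lower means less elongation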
* marks the source's active call; other numbers are inactive results; x = not tested or not shown; & = joins results of further samples.

SMILES,PV pol inh,Mtb MenB inh,PV pol inh intensity,MbtI inh
O=C(Cn1ncn2c(cc3sccc32)c1=O)NC1CCCc2ccccc21 (configuration not stated),99,2,103,-2
Cc1c(O)ccc2c(CN(C)CC3COc4ccccc4O3)cc(=O)oc12 (configuration not stated),102,-22,103,5
COc1ccnc(N2CCN(C(=O)OC(C)(C)C)CC2)n1,105,12,97,7
N#CCCn1[nH]c(=O)ccc1=O,103,6,105,0
CCCC(C)(COC(N)=O)COC(=O)NC(C)C (configuration not stated),100&99,3&-19,103&99,-4&-8
CC1Cc2ccccc2N1C(=O)Cn1c(=O)cc(O)c2ccccc21 (configuration not stated),104,-11,111,-19
COCCN1C(=O)/C(=C\N2CCN(c3ccc(OC)cc3)CC2)C(=O)NC1=S,113,-8,115,15
CC(C)(C)c1ccc(C(=O)CC(NCc2ccccc2)C(=O)O)cc1 (configuration not stated),103,5,109,x
CCCCc1ccc(N/C=c2/c(C)c(C#N)c3nc4ccccc4n3c2=O)cc1,87,-29,177,-9
O=C1ON(c2ccccc2)C(c2ccc3c(c2)OCO3)N1c1ccccc1 (configuration not stated),100,-19,103,-9
CCOc1ccccc1NC(=O)COC,100,-25,102,8
Cc1ccc(NC(=O)CN(c2nccs2)S(=O)(=O)c2ccccc2)cc1,107,-21,119,-8
Cn1cccc1/C=C1\C(=O)NC(=S)N(c2ccccc2)C1=O,98,-46,95,18
O=C1C2CC(CN3CCCC[C@@H]23)[C@H]2CCCCN12 (some centres not stated),99,-3,104,1
NC(=O)CCSCc1ccc(Cl)c(Cl)c1,100,-54,101,-19
Cc1ccc(S(=O)(=O)NNC(=S)NCC2CCCO2)cc1 (configuration not stated),100,16,103,-14
COCCN1C(=O)c2ccccc2C(C(=O)NCCN2CCOCC2)C1c1cn(C)c2ccccc12 (configuration not stated),98,-19,98,-7
S=c1[nH]nc(CN2CCCC2)o1,100,-10,99,18
O=C(CSc1ccccc1F)NCC(c1cccs1)N1CCOCC1 (configuration not stated),105,0,115,7
C=CCn1c(C)cc(C(C)(C)c2cc(C)n(CC=C)c2C)c1C,89,-1,181,-11

Compound profiles, as listed above. Order of screens: PV pol inh | Mtb MenB inh | PV pol inh intensity | MbtI inh
`CCOc1ccccc1NC(=O)COC` reads 100 | -25 | 102 | 8
`S=c1[nH]nc(CN2CCCC2)o1` reads 100 | -10 | 99 | 18
`O=C(CSc1ccccc1F)NCC(c1cccs1)N1CCOCC1` (configuration not stated) reads 105 | 0 | 115 | 7
`Cc1ccc(NC(=O)CN(c2nccs2)S(=O)(=O)c2ccccc2)cc1` reads 107 | -21 | 119 | -8

(further entries)
SMILES,PV pol inh,Mtb MenB inh,PV pol inh intensity,MbtI inh
COc1cccc(C(=O)c2cc3ccc(O)cc3oc2=O)c1,103,-175,100,47
N#C/C(=C\c1ccc2c(c1)OCCO2)C(N)=S,105,-238,102,4
O=C(COC(=O)CN1C(=O)C2CC=CCC2C1=O)Nc1ccc2c(c1)OCO2 (configuration not stated),103,-19,105,-4
CCN(CC)C(=O)Oc1ccc(Cl)c2cccnc12,99,-7,101,90
O=c1ccc(-c2cccs2)n[nH]1,103,-1,106,2
CC(C)C12CN3CCN(CC(C3)/C1=N/N)C2,108,4,111,x
O=S1(=O)CCC(N(CC2CCCO2)S(=O)(=O)c2cccs2)C1 (configuration not stated),105,-8,103,-3
O=C(CC12CC3CC(CC(C3)C1)C2)NC1CCN(Cc2ccccc2)CC1,104,-5,98,10
Nc1ccc2oc(=O)ccc2c1,100,-41,107,17
Nc1ncn([C@@H]2O[C@H](CO)[C@@H](O)[C@H]2O)c(=O)n1,99,-26,100,-19
O=C(Nc1ccc(-c2cn3c(n2)SCC3)cc1)c1ccco1,104,22,118,28
Cc1cc(C)c2c(N)c(C(=O)NC(C)c3ccccc3)sc2n1 (configuration not stated),105,-3,110,x
COC(=O)COc1ccc(S(=O)(=O)Nc2ccc(C(F)(F)F)cc2)cc1,98,0,104,-14
Cc1nc(C)c(C(=O)OCC(=O)N(C)C)s1,98,0,105,2
CCN(CC)CCn1c2ccccc2c2nc3cc(C(=O)O)ccc3nc21,103,-8,112,-3
NC(=O)CSc1ccc(-c2ccc3c(c2)OCO3)nn1,105,-25,108,3
O=C(Cc1cccs1)NC(c1ccccc1)c1ccccc1,103,-13,110,x
Cc1ccc(NC(=O)CN2CCCC2c2cccn2C)cc1C (configuration not stated),105,-14,104,1
COc1ccc2c(C)nc(N=C(N)N)nc2c1,99,12,105,38
Cc1c(N2C(=O)CSC2=S)c(=O)n(-c2ccccc2)n1C,101,-66,103,-10
O=S(=O)(c1cccc2nsnc12)N1CCNCC1,103&101,2&7,102&109,27&12
O=C(CNc1ccccc1C(=O)NCc1ccco1)Nc1ccc(N2CCOCC2)cc1,104,-3,98,71
CC1=CC(C)C(/C=N/N=C(N)N)C(C)C1 (configuration not stated),99,-1,102,-7
Cc1c(C(=O)N2CCN(c3ncccn3)CC2)oc2ccc(Cl)cc12,106,-6,111,-4
O=C(NCC(c1ccco1)N1CCCCC1)Nc1ccc(Cl)c(Cl)c1 (configuration not stated),99,-47,98,-36
CCn1c(SC)nnc1C1CCN(CC(=O)Nc2ccccc2N2CCOCC2)CC1,102,-31,103,-5
CCc1ccc(N(C(=O)c2ccco2)C(C(=O)NC2CCCC2)c2ccncc2)cc1 (configuration not stated),102,-26,102,-12
CN1CCN(Cc2nc3ccccc3c(=O)n2CC#N)CC1,109,-25,103,1
O=C(O)C1CCN(C(=O)c2ccccc2)CC1,105,-20,109,x
NNC(=O)CCN1CCN(c2ccccc2)CC1,103,4,96,-5
CCOC(=O)c1cn2nc(-c3ccc(OC)cc3)cc2nc1C1CCN(C(=O)OC(C)(C)C)CC1,103,-3,100,4
CC(CCc1ccccc1)NC(=O)CCc1cn(Cc2ccc(F)cc2)c2ccccc12 (configuration not stated),104,-36,102,-1
CN(C(=O)COc1ccc2ccc(=O)oc2c1)c1ccccc1,104,x,102,-49
NS(=O)(=O)c1ccc(NC(=O)CCC(=O)c2ccc(F)cc2)cc1,x,-3,x,-2
O=C1NCCCC1c1n[nH]c(=S)n1Cc1ccccc1 (configuration not stated),100,-20,101,2
Cc1cc(C(=O)Cn2cnc3ccsc3c2=O)c(C)n1CCc1ccc(F)cc1,104,4,97,9
CN=c1scc(-c2ccc(OC)cc2)n1/N=C/c1cc(Br)c(O)c(OC)c1,101,-48,99,-6
O=S(=O)(Nc1nc2ccccc2nc1NCCC1=CCCCC1)c1ccccc1,104,-20,104,-6
NS(=O)(=O)c1ccc(N/C=C/C(=O)c2ccccc2)cc1,99,-183,102,-9
COC(=O)c1ccccc1N=Cc1sc(=S)[nH]c1O,111,-164,125,4
O=C(Cn1c(C(F)(F)F)nc2ccccc21)OCc1nnc(-c2ccc(Cl)cc2)o1,108,-6,108,-8
Cc1ccc2c(COC(=O)/C=C/c3ccc(Br)o3)cc(=O)oc2c1,101,0,111,-12
CCn1nc(C)cc1C(=O)NN,105,-2,107,-5
N#Cc1c(-c2cccnc2)cc2c(c1N)c(=O)oc1ccccc12,103,-13,101,5
CC(C)CCNc1ncnc2onc(-c3ccc(Cl)cc3)c12,102,8,103,-8
Cc1ccc2oc(=O)c3cnn(CC(=O)N4CCCc5ccccc54)c3c2c1,99,2,103,-1
CC/C(O)=C(\C#N)c1nc2ccccc2n1C,103,-54,103,13
CCS(=O)(=O)NCC(c1cccnc1)N1CCN(c2ccccc2)CC1 (configuration not stated),100,4,105,-1
Fc1ccc(CNC(c2ccc(F)cc2)c2nnc(-c3ccccc3)o2)cc1 (configuration not stated),103,-9,103,-20
CC1CCC(NC(=O)Cn2ncc3c2-c2ccccc2OC3)CC1 (configuration not stated),100,-11,102,-9

(continued)
SMILES,PV pol inh,Mtb MenB inh,PV pol inh intensity,MbtI inh
S=c1[nH]nc(CNc2ccc(I)cc2)n1-c1ccccc1,100,-14,102,58
O=C(Nc1ccc(OC(F)(F)F)cc1)OCCc1csc2ccccc12,106,-17,109,-11
Cc1ccccc1OCCSc1nnc(-c2ccc3c(c2)OCO3)o1,106,2,105,-65
O=C(NCCc1ccccc1)c1cc(-c2ccccc2)nc2ccccc12,103,-35,105,3
CCc1ccc(N2C(=O)CNC2=S)cc1,105,-24,100,8
OCCNc1nc(N2CCOCC2)nc(N2CCOCC2)n1,98,-3,100,-2
c1cnc2sc3c(N4CCOCC4)ncnc3c2c1,97,0,93,-75
CCOc1cc(S(=O)(=O)n2ccnc2)ccc1Br,100,-22,103,-12
O=C(O)CCCN1C(=O)/C(=C2\SC(=S)N(CCCC(=O)O)C2=O)SC1=S,88*,-198,86*,88*
O=C(CSc1nc2c(c(=O)[nH]1)CSC2)c1ccc(Cl)cc1,101,2,94,82*

A run of entries from further up, for reference:
SMILES,PV pol inh,Mtb MenB inh,PV pol inh intensity,MbtI inh
S=c1[nH]nc(CNc2ccc(I)cc2)n1-c1ccccc1,100,-14,102,58
O=C(Nc1ccc(OC(F)(F)F)cc1)OCCc1csc2ccccc12,106,-17,109,-11
Cc1ccccc1OCCSc1nnc(-c2ccc3c(c2)OCO3)o1,106,2,105,-65
O=C(NCCc1ccccc1)c1cc(-c2ccccc2)nc2ccccc12,103,-35,105,3

Next section.
SMILES,PV pol inh,Mtb MenB inh,PV pol inh intensity,MbtI inh
O=C1c2ccc(-c3ncc(-c4ccccc4)o3)cc2C(=O)N1c1ncn[nH]1,103,-25,106,-25
Cc1nc2ccccn2c1P(=O)(N1CCCCC1)N1CCCCC1,99,-23,93,61
O=C(CCC(=O)N1CCCCc2ccccc21)NC1CCCC1,99,-7,103,-5
O=c1c(O)c(-c2ccc(F)c(Oc3ccccc3)c2)oc2ccccc12,108,-24,110,x
COc1ccc(CCN(C)c2nc(N)c3c(N)nc(SCC(=O)O)cc3c2C#N)cc1OC,72*,-28,81*,-110
CCOC(=O)N1CCN(C(=O)c2cccs2)CC1,102,7,106,x
O=C1CC(NC2CC2)C(=O)N1c1ccccc1 (configuration not stated),102,-9,102,-12
Cc1noc(C)c1C(=O)N1CCN(C(=O)c2sc3cc(Cl)ccc3c2Cl)CC1,102,-7,103,-13
COCCn1nnnc1C(CC(C)C)N1CCN(c2cc(Cl)ccc2C)CC1 (configuration not stated),99,-15,100,-9
COc1ccc2c(c1)cc1n2CCN=C1NN,104,-26,102,-24
CN(C)c1nc(N(C)C)nc(N(C)C#N)n1,102,-31,100,-3
O=C(O)COCC1COc2ccccc2O1 (configuration not stated),100,12,102,0
Clc1ccc2cn[nH]c2c1,101,-1,103,7
CC(CC(=O)Nc1ccccc1)n1cccn1 (configuration not stated),101,-11,102,-28
Cc1ccc(NS(=O)(=O)c2cccc(C(=O)OC3CCOC3=O)c2)cc1 (configuration not stated),103,-2,106,-5
O=C(NC(=S)Nc1ccc(-c2nc3ccccc3o2)cc1)c1ccc(F)cc1,100,-41,96,-2
CCC(C)C(C(=O)Nc1ccc(N2CCOCC2)cc1N1CCOCC1)c1ccccc1 (configuration not stated),101,-35,107,1
CC(C)C1Cc2c(sc3c2c(=O)n(CCc2ccccc2)c2n[nH]c(=S)n32)CO1 (configuration not stated),100,-13,101,9
CCc1ccc(NC2CC(=O)N(c3ccccc3)C2=O)cc1 (configuration not stated),98,-1,102,0
CCOc1ccc(-n2c(-c3ccc(OC)cc3)c[n+]3c2CCCCC3)cc1,102,3,107,1
COc1ccc(CCCc2n[nH]c(=S)o2)cc1,104,-10,98,10
O=C(O)CSc1ccc(Oc2ccc(SCC(=O)O)cc2)cc1,104,26,101,-4
CN(C)S(=O)(=O)c1cccc(COC(=O)c2nn(C)c(=O)c3ccccc23)c1,102,0,95,26
Cc1oc(-c2ccc(C(=O)N3CCCC3)cc2)nc1CS(=O)(=O)c1ccccc1,102,-1,101,12
O=C(OC(c1ccccc1)c1ccccc1)c1ccncc1,100,-33,95,16
COc1cc(C(=O)OCC(=O)N(C)C2CCS(=O)(=O)C2)ccc1OCc1c(C)noc1C (configuration not stated),101,15,98,14
COc1ccc(-c2cc(-c3ccccc3)n[nH]2)cc1,114,-28,109,x
O=C(c1cc2ccccc2o1)N1CCCC(c2nc3ccccc3s2)C1 (configuration not stated),107,-34,112,2
CC(OC(=O)c1ncc(Cl)c(Cl)c1Cl)C(=O)N1CCOCC1 (configuration not stated),104,-9,108,-16
O=C(OCc1ccccc1)N1CCc2ccccc21,103,-16,104,-22
O=S(=O)(Nc1nc2ccccc2nc1Nc1ccc2nsnc2c1)c1ccccc1,107,-23,117,-9
O=C(Cn1c(COc2ccccc2)nc2ccccc21)NC1=NCCS1,100,-7,100,0
O=C(O)c1ccc(CNCCc2ccccc2)s1,103,-22,97,-10

Screens deposited in PubChem BioAssay by ICCB-Longwood Screening Facility, Harvard Medical School.
